# Screens (PubChem)
# ClpP mod: qHTS Assay for Activators of ClpP; Potency, µM (series often up to 57.5 µM), for the others: top-dose activity change, negative = active; 340,000 tested, 1.9% active; purified B. subtilis ClpP, FRET peptide cleavage, 20 min; AID 651965, 2013; active = well fitted falling curve with a large enough effect; inconclusive = small, poorly fitted or top-dose-only effect; inactive = no such curve, though single readings can be large or run the other way; note: the source files actives as falling curves though it sought activators and does not explain the sign; nearly all actives have a fitted effect of over 65% in size; many hits overshoot -100%
# Target sequence (P80244 whole entry, looked up): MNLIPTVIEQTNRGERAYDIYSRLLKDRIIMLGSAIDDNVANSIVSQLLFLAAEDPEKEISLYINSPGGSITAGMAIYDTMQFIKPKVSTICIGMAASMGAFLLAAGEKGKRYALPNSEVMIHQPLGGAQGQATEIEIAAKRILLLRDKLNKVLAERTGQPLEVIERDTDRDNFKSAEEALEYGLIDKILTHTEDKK
#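 Purified B. subtilis ClpP, 10 microg/mL final in Tris/HCl pH8 with KCl, BSA, glycerol and Tween-20, cleaved an Abz/nitrotyrosine-quenched decapeptide. Fluorescence (ex 320, em 430) was read at 0 and 20 min at room temperature. Delta was normalized to 5.8 microM ADEP and DMSO/no-enzyme controls.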
# * marks the source's active call; other numbers are inactive results; u = inconclusive. Potency is the fitted concentration of half-maximal effect.
SMILES,ClpP mod
COc1ccccc1N1CCN(C(=O)CCn2nc(C)c(S(=O)(=O)N3CCCC3)c2C)CC1,0.9%
COc1ccc(-c2cccc(NS(=O)(=O)c3cc(C)ccc3OC)c2)nn1,-1.8%
CCOc1ccc(NC(=O)Cn2cc(C(=O)c3ccc(C)c(C)c3)c(=O)c3cc4c(cc32)OCCO4)cc1,-4.9%
COc1cccc(CNC(=O)c2c(C)nn(-c3ccc(F)cc3)c2-n2cccc2)c1,0.2%
CC1CCCN(c2nc3c(-c4ccc(Cl)cc4)nnn3c3ccccc23)C1 (stereo unspecified),-9.6%
COc1cn(CC(=O)Nc2cc(C)ccc2C)c(CN2CCCCC2)cc1=O,-1.8%
CC(C)(C)OC(=O)N1CCC(c2c(C(=O)N3CCc4ccccc4C3)cnn2-c2ccc(F)cc2)CC1,0.1%
CCNC(=O)c1nn(-c2ccccc2C)nc1CO,-3.7%
CC(C)Cn1c(-c2cccc(Br)c2)nc2ccccc21,u
COC(=O)c1sc(-c2ccccc2)cc1NC(=O)Nc1ccc(F)cc1,31.6µM*
COc1cccc(NC(=O)Cn2c(=O)cc(C)c3c(C)nn(-c4cccc(F)c4)c32)c1,-2.2%
CC1CCN(S(=O)(=O)c2ccc3c(ccc(=O)n3CC(=O)Nc3ccc(C(C)C)cc3)c2)CC1,-4.0%
CCOCN(C(=O)CSc1nc2ccccc2[nH]1)c1c(C)cccc1CC,3.7%
Cc1nn2c(=O)cc(COC(=O)c3cccc(NC(=O)c4ccc(F)cc4)c3)nc2s1,4.6%
COc1ccccc1CNC(=O)C1CCN(S(=O)(=O)c2ccc3c(ccn3C)c2)CC1,-11.3%
CCOC(=O)CSc1nc2sc3c(c2c(=O)n1Cc1ccccc1)CC(C(C)C)OC3 (stereo unspecified),0.4%
Cn1nnnc1SCCCNCc1cc(Cl)ccc1OCc1ccccc1F,-0.6%
O=C(NCCO)c1ccc(-c2nnc(Nc3ccc(OC(F)(F)Cl)cc3)c3ccccc23)cc1,-2.3%
CC1CCN(CC[S-])CC1.O.O.[Cl][Pt],-3.2%
O=C(CN1C(=O)COc2ccc(S(=O)(=O)N3CCCCCC3)cc21)NCCc1ccccc1,-2.7%

# Brought forward from above: 2 compounds, then new ones.
SMILES,ClpP mod
CC1CCN(CC[S-])CC1.O.O.[Cl][Pt],-3.2%
O=C(CN1C(=O)COc2ccc(S(=O)(=O)N3CCCCCC3)cc21)NCCc1ccccc1,-2.7%
COc1cc(OC)c(NC(=O)c2nnn(Cc3ccc(C)cc3)c2N)cc1Cl,16.3%
COc1ccc(CNC(=O)CCc2cn(C)c3ccccc23)cc1,u
COc1ccccc1-c1nn2c(-c3cc(-c4ccccc4)n[nH]3)nnc2s1,1.9%
COc1ccc(-n2c(C)nc3c(cnn3-c3ccc(F)cc3)c2=O)cc1,0.1%
COc1ccc(-c2cc(OC(=O)c3ccccc3C)c3c(C)oc(C)c3c(=O)c2)cc1,1.5%
Cn1c(=O)c2cc(C(=O)NCCCN3CCN(c4cccc(Cl)c4)CC3)sc2c2ccccc21,-6.3%
CSc1ncc(C(=O)NCc2cccc(C)c2)c(-c2ccccc2)n1,-5.6%
COc1cccc(C(c2c(O)cc(C)n(Cc3ccco3)c2=O)N2CCC(C)CC2)c1 (stereo unspecified),-0.1%
COc1ccc(C(=O)N2CCc3cc(OC)c(OC)cc3C2COc2ccc3c(C)cc(=O)oc3c2)c(OC)c1 (stereo unspecified),-1.0%
Cc1ccc2ncc(C(=O)Nc3ccc(OC(F)(F)F)cc3)c(=O)n2c1,-0.4%
O=C(CCn1ccc2cc(S(=O)(=O)N3CCCC3)ccc21)NCc1cccc(Cl)c1,-2.4%
CSCCC(NS(=O)(=O)c1ccc2c(c1)oc(=O)n2C)C(=O)N1CCN(c2ccc(C(C)=O)cc2)CC1 (stereo unspecified),1.8%
CN(C)c1ccc(/C=C/c2c(Br)cnc3ccccc23)cc1,1.1%
CCOc1ccc2oc(=O)cc(CN3CCN(C(=O)c4ccc(OC)c(OC)c4)CC3)c2c1,-21.2%
CCc1ccc(NC(=O)c2cc3c(=O)n(Cc4cccnc4)ccc3nc2C)cc1,-5.1%
CCc1ccc(NC(=O)N2CCN(C(=O)c3nsc4ccccc34)CC2)cc1,-0.7%
O=C(NCCc1ccc(Cl)cc1)c1ccc(CSCc2cccc(Cl)c2)o1,-0.7%
Cc1ccc(CNC(=O)CCc2c(C)nn(-c3ccc(N4CCCCC4)nn3)c2C)cc1,-2.6%
COc1ccc(-c2cc(OC(=O)c3cccc(C)c3)c3c(C)oc(C)c3c(=O)c2)cc1,-4.5%
COc1cccc(CN2c3ccccc3-c3nc(SCC(=O)Nc4cccc(C)c4)ncc3S2(=O)=O)c1,3.7%
Cn1c(=O)c2sccc2n2c(CCC(=O)NCc3ccc(Cl)cc3)nnc12,-5.0%
CCOC(=O)c1c(NC(C)=O)c2c3c(sc2n1Cc1nc(-c2ccc(Cl)cc2)oc1C)CCCC3,-1.4%
COc1ccc(OC)c(/C=C/c2ccc3ccccc3[n+]2C)c1,0.6%
Cc1ccc(NC(=O)C(Cc2ccccc2)NS(=O)(=O)c2ccc3c(c2)oc(=O)n3C)cc1C (stereo unspecified),-1.0%
CCc1ccc2occ(CC(=O)Nc3ccc(C)c(C)c3)c2c1,-2.7%
Cc1csc2nc(COC(=O)c3ccc(NC(=O)COc4ccccc4F)cc3)cc(=O)n12,-3.1%
CCN(c1ccccc1)c1nnc(NC(=O)Nc2ccc(Br)c(C)c2)s1,-0.1%
O=C(Nc1nnc(S(=O)(=O)N2CCCc3ccccc32)s1)c1ccccc1Cl,1.4%
CCC(C)OC(=O)/C(C#N)=C\c1ccc(-c2ccccc2Cl)o1 (stereo unspecified),-0.3%
CCN(CC)c1ccc(NC(=O)C(NS(=O)(=O)c2cccs2)C(C)C)c(C)c1 (stereo unspecified),0.5%
CCC(C(=O)NCCc1ccc(OC)c(OC)c1)n1nc(C)c2sc3ccccc3c2c1=O (stereo unspecified),-4.3%
COc1ccc(-c2noc(-c3ccc(N4CCOCC4)c([N+](=O)[O-])c3)n2)cc1,-1.7%
O=S(=O)(c1ccc(F)cc1)N1CCN(c2nc(-c3ccccc3)nc3ccccc23)CC1,u
CCN(Cc1ccccc1)C(=O)Cn1c(=O)n(-c2ccc(F)c(Cl)c2)c(=O)c2sc3ccccc3c21,4.1%
Cc1nc(C)c(-c2ccc(SCC(=O)Nc3ccc(F)c(F)c3)nn2)s1,-1.6%
CCOc1ccc(C(=O)c2cn(Cc3cccc(OC)c3)c3cc4c(cc3c2=O)OCO4)cc1,-2.2%
COc1ccc(OC)c(CCNC(=O)c2cnn(-c3ccccc3Cl)c2C2CCN(C(=O)OC(C)(C)C)CC2)c1,1.0%
CCOC(=O)c1c(S(=O)(=O)N2CCC(C(=O)NCc3cccc(C)c3)CC2)c(C)n(C)c1C,0.2%
Cc1cc(-c2ccc(S(=O)(=O)Nc3cccc(C(F)(F)F)c3)s2)on1,-0.4%
CN(C)c1cccc(C(=O)N2CCC(c3ccncc3)CC2)c1,-1.7%
O=C(/C=C/c1ccccc1)Nc1nc2n(n1)C(c1ccc(F)cc1)C=C(c1ccccc1)N2 (stereo unspecified),-19.7%
COc1ccc(NC(=O)C2=C(C)Nc3nc(SC)nn3C2c2cc(OC)ccc2OC)cc1 (stereo unspecified),0.6%
COc1cccc(CNC(=O)CCC(=O)N2CC3CCCN3c3ccccc32)c1 (stereo unspecified),-3.1%
CCCSc1nc2sc3c(c2c(=O)n1-c1ccc(C)c(Cl)c1)CCN(C(C)=O)C3,-5.7%
Cc1csc2nc(COC(=O)c3ccc(NC(=O)C(C)Oc4ccccc4)cc3)cc(=O)n12 (stereo unspecified),2.7%
NS(=O)(=O)c1ccc(S(=O)(=O)N2CCN(c3nc(-c4ccccc4)nc4ccccc34)CC2)cc1,-27.0%
CCOc1ccc(CNC(=O)CCc2c(C)nn(-c3ccc(N4CCCCC4)nn3)c2C)cc1,-0.9%
Cc1[nH]c2ccccc2c1C(c1c[nH]c2ccccc12)c1c(C)[nH]c2ccccc12,-7.1%
Cc1ccc(C(=O)n2nc(-c3ccco3)nc2NCc2cccs2)cc1,-1.2%
Cc1ccc(CN2CCCn3nc(C(=O)NCc4ccc(OC(C)C)cc4)cc3C2=O)cc1,-3.6%
Cc1cc(C)cc(OCC(=O)Nc2cccc3cccnc23)c1,118.2%
Cc1ccc(NC(=O)c2ccc(NC(=O)N3CCSc4nc(C)cc(C)c43)cc2)c(Cl)c1,17.4%
CC(C)CCNC(=O)C(=O)Nc1c2c(nn1-c1ccccc1)CS(=O)(=O)C2,-1.1%
Cc1noc(-c2ccc(-c3noc(-c4ccc(F)cc4)n3)cc2)n1,-2.2%
O=C(c1cc2c(s1)-c1ccccc1OC2)N1CCN(c2ccccc2F)CC1,4.1%
COc1ccccc1OCCn1c(C(C)Oc2ccccc2)nc2ccccc21 (stereo unspecified),-2.3%
CC(C)CCNC(=O)CN1C(=O)COc2ccc(S(=O)(=O)N3CCOCC3)cc21,-1.4%
O=c1c(=O)n(-c2ccccc2)ccn1Cc1c(F)cccc1Cl,0.7%
COc1ccc(C(=O)OCc2cc(=O)n3nc(-c4cccs4)sc3n2)cc1,-24.0%
Cc1nc(N2CCOCC2)c2c(C(=O)N(C)c3ccccc3)c(C)oc2n1,0.8%

# An excerpt from above in order of formula weight, largest number first:
SMILES,ClpP mod
NS(=O)(=O)c1ccc(S(=O)(=O)N2CCN(c3nc(-c4ccccc4)nc4ccccc34)CC2)cc1,-27.0%
COc1ccc(NC(=O)C2=C(C)Nc3nc(SC)nn3C2c2cc(OC)ccc2OC)cc1 (stereo unspecified),0.6%
Cc1ccc(NC(=O)c2ccc(NC(=O)N3CCSc4nc(C)cc(C)c43)cc2)c(Cl)c1,17.4%
Cc1csc2nc(COC(=O)c3ccc(NC(=O)C(C)Oc4ccccc4)cc3)cc(=O)n12 (stereo unspecified),2.7%
CCOc1ccc(CNC(=O)CCc2c(C)nn(-c3ccc(N4CCCCC4)nn3)c2C)cc1,-0.9%
CCCSc1nc2sc3c(c2c(=O)n1-c1ccc(C)c(Cl)c1)CCN(C(C)=O)C3,-5.7%
CC(C)CCNC(=O)CN1C(=O)COc2ccc(S(=O)(=O)N3CCOCC3)cc21,-1.4%
COc1ccc(C(=O)OCc2cc(=O)n3nc(-c4cccs4)sc3n2)cc1,-24.0%
O=C(c1cc2c(s1)-c1ccccc1OC2)N1CCN(c2ccccc2F)CC1,4.1%
COc1cccc(CNC(=O)CCC(=O)N2CC3CCCN3c3ccccc32)c1 (stereo unspecified),-3.1%
Cc1[nH]c2ccccc2c1C(c1c[nH]c2ccccc12)c1c(C)[nH]c2ccccc12,-7.1%
Cc1nc(N2CCOCC2)c2c(C(=O)N(C)c3ccccc3)c(C)oc2n1,0.8%
Cc1ccc(C(=O)n2nc(-c3ccco3)nc2NCc2cccs2)cc1,-1.2%
Cc1noc(-c2ccc(-c3noc(-c4ccc(F)cc4)n3)cc2)n1,-2.2%
Cc1cc(C)cc(OCC(=O)Nc2cccc3cccnc23)c1,118.2%

# (listing goes on)
SMILES,ClpP mod
CCCCOc1ccc(C(N)=O)cc1,-0.2%
CCOc1ccc(CCNC(=O)c2cn(CC)c3ccc(S(=O)(=O)N4CCCCCC4)cc3c2=O)cc1OCC,u
Cc1ccc(-n2nnnc2CNC(=O)c2ccc(F)cc2)cc1C,1.5%
Cc1oc2ncn(C)c(=O)c2c1C(=O)N(Cc1ccccc1)C(C)C,0.6%
CC1=C(C(=O)N2CCCCCC2)CC(CC(=O)NC2CCCCC2)C(=O)N1Cc1ccc(F)cc1 (stereo unspecified),-0.1%
CCOc1ccc(N2CC(c3nc4ccccc4n3Cc3ccccc3F)CC2=O)cc1 (stereo unspecified),-2.2%
COc1ccc(S(=O)(=O)N2CCC(c3ccncc3)CC2)cc1Cl,-5.0%
CC(=O)c1ccc(Nc2cc(C)nc3nc(Cc4ccccc4)nn23)cc1,-0.5%
Cc1oc(C)c2c(=O)cc(-c3ccc4c(c3)OCO4)cc(OC(=O)c3ccccc3Cl)c12,0.4%
CC(C)(C)c1ccc(OCC(=O)NC(Cc2c[nH]c3ccccc23)C(=O)O)cc1 (stereo unspecified),-0.4%
COc1ccc(OC)c(CNC(=O)Cn2nc(C)c3c(C)n(-c4ccccc4)nc3c2=O)c1,-3.6%
Cc1ccc(NC(=O)C(Cc2ccccc2)NS(=O)(=O)c2ccc3c(c2)oc(=O)n3C)c(Cl)c1 (stereo unspecified),0.8%
COc1ccc(C(=O)Nc2ccc(OCc3cc(=O)n4ccccc4n3)cc2)cc1,4.0%
CCc1ccc(NC(=O)CN2C(=O)CSc3ccc(S(=O)(=O)N(C)C)cc32)cc1,0.7%
CCCN1C(C(=O)c2ccccc2)=C(OC(=O)c2ccc(OC)cc2)c2ccccc2S1(=O)=O,1.4%
COc1ccc(C2=C(C)C(=O)N(Cc3ccc(C(=O)NCc4cccc(C)c4)cc3)S2(=O)=O)cc1,4.7%
Cc1c(C(=O)N2CCC(C)CC2)c(S(=O)(=O)N2CCN(c3cccc(Cl)c3)CC2)c(C)n1C,0.7%
Cc1ccc(NC(=O)CSc2nc(-c3ccco3)nc3cc(=O)[nH]n23)cc1C,2.6%
COc1ccc(-n2c(SCC(=O)NCc3ccccc3)nc3n[nH]c(C)c3c2=N)cc1,66.8%
COc1ccc(N2CCN(C3C(=O)c4ccccc4N3C(C)=O)CC2)cc1 (stereo unspecified),-8.0%
Cc1cccc(CSc2ncc(CO)n2Cc2ccc(F)cc2)c1,-0.4%
Cc1ccc(-c2nnc(Nc3ccccc3)c3ccccc23)cc1S(=O)(=O)N1CCOCC1,-0.3%
C=Cc1ccc(CSc2nc(-c3ccc(Cl)cc3)nc3c2Cc2c(CO)cnc(C)c2O3)cc1,-0.2%
Cc1ccc(C(C)C)c(OCCn2cc(C(=O)c3ccco3)c3ccccc32)c1,u
CC(=O)c1ccc(NC(=O)c2cc(C3CC3)nc3c2c(C)nn3-c2ccc(C)cc2)cc1,-4.2%
COc1ccc(OCC2c3cc(OC)c(OC)cc3CCN2C(=O)c2ccc(F)cc2)cc1 (stereo unspecified),0.6%

# This is a subset; the hit share may differ from the screen's.
